# Vaccinia inh – blocks a specific stage of Vaccinia orthopoxvirus infection, primary screen, cell-based, single point. AID 1053133, 2014. activity change (mCherry), % (no concentration beside the values). Vaccinia-infected cells, mCherry/Venus stage reporter fluorescence; active compounds read low; some inactives read as strong as hits. 0.01% of 89,000 active;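 active = mCherry past -33% and 40 or more points under the early reporter, replicates agreeing; inconclusive = past -33% without that gap or agreement; tested in A549 cells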;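 also: scaled between vehicle wells and reference inhibitor wells; 23 nL library stock went into each well; one replicate is shown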
# Vaccinia inh Venus – further read-out of Vaccinia inh, marked with its call; activity change (Venus), %; measured here: Venus reporter, other viral stage;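 negative = less Venus signal; first of two replicates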
# * hit, by the source's call; u = inconclusive; x = no result given.
SMILES,Vaccinia inh,Vaccinia inh Venus
COc1cccc(NC(=O)N[C@@H]2C=C[C@H](CC(=O)N3CCOCC3)O[C@H]2CO)c1,1.4,9.8
CO[C@H]1CN(C)C(=O)c2cc(NC(=O)Nc3ccccc3)ccc2OC[C@H](C)N(CC2CC2)C[C@H]1C,-6.4,-6.5
CC(C)C#Cc1ccc2c(c1)O[C@@H](CN(C)Cc1cccnc1)[C@H](C)CN([C@H](C)CO)S2(=O)=O,u,x
C[C@H]1CN([C@@H](C)CO)C(=O)Cc2cc(NC(=O)CCN3CCOCC3)ccc2O[C@H]1CN(C)Cc1ccccc1,6.3,-2.6
COc1cccc(CNC(=O)C[C@@H]2CC[C@@H](NC(=O)C3CCC3)[C@@H](CO)O2)c1,12.7,-2.4
C[C@H]1CN([C@@H](C)CO)C(=O)c2cccc(NC(=O)c3ccc(-c4nccs4)cc3)c2O[C@H]1CN(C)C(=O)Nc1ccc(C(F)(F)F)cc1,-17.3,-19.8
C[C@@H]1CCCCO[C@@H](CN(C)Cc2ccncc2)[C@@H](C)CN([C@@H](C)CO)C(=O)c2cc(NS(=O)(=O)c3cccs3)ccc2O1,2.8,4.7
O=C(Nc1cccc(F)c1)N1C[C@H]2[C@@H](c3ccccc31)[C@H](CO)N2C(=O)Cc1ccccn1,-24.9,-18.8
C[C@H]1CN([C@@H](C)CO)C(=O)Cc2cc(NC(=O)C3CC3)ccc2O[C@H]1CN(C)CC1CC1,-2.5,5.7
C[C@@H](O)C#Cc1cnc2c(c1)C(=O)N([C@@H](C)CO)C[C@H](C)[C@H](CN(C)C(=O)Cc1ccncc1)O2,9.8,-1.4
CO[C@@H]1CN(C)C(=O)c2ccc(NS(=O)(=O)c3ccccc3)cc2OC[C@H](C)N(Cc2cccnc2)C[C@H]1C,-0.9,0.7
CCC(=O)N(C)C[C@@H]1Oc2ncc(-c3ccc(F)cc3)cc2C(=O)N([C@@H](C)CO)C[C@@H]1C,9.5,3.2

# Continued (6 carried over from the part before).
SMILES,Vaccinia inh,Vaccinia inh Venus
C[C@@H]1CCCCO[C@@H](CN(C)Cc2ccncc2)[C@@H](C)CN([C@@H](C)CO)C(=O)c2cc(NS(=O)(=O)c3cccs3)ccc2O1,2.8,4.7
O=C(Nc1cccc(F)c1)N1C[C@H]2[C@@H](c3ccccc31)[C@H](CO)N2C(=O)Cc1ccccn1,-24.9,-18.8
C[C@H]1CN([C@@H](C)CO)C(=O)Cc2cc(NC(=O)C3CC3)ccc2O[C@H]1CN(C)CC1CC1,-2.5,5.7
C[C@@H](O)C#Cc1cnc2c(c1)C(=O)N([C@@H](C)CO)C[C@H](C)[C@H](CN(C)C(=O)Cc1ccncc1)O2,9.8,-1.4
CO[C@@H]1CN(C)C(=O)c2ccc(NS(=O)(=O)c3ccccc3)cc2OC[C@H](C)N(Cc2cccnc2)C[C@H]1C,-0.9,0.7
CCC(=O)N(C)C[C@@H]1Oc2ncc(-c3ccc(F)cc3)cc2C(=O)N([C@@H](C)CO)C[C@@H]1C,9.5,3.2
COCC#Cc1ccc2c(c1)O[C@H](CN(C)C(=O)Nc1ccc(OC)cc1)[C@@H](C)CN([C@H](C)CO)S2(=O)=O,4.2,-10.5
C[C@H](CO)N1C[C@H](C)[C@@H](CN(C)C(=O)c2ccncc2)OCc2ccccc2-c2ccccc2C1=O,7.7,2.2
C[C@H]1CCCCO[C@H](CN(C)C(=O)Nc2cccc3ccccc23)[C@@H](C)CN([C@@H](C)CO)C(=O)c2cc(NS(=O)(=O)c3cccs3)ccc2O1,3.6,7.7
CN1c2ccc(-c3cccc(F)c3)cc2[C@@H]2[C@@H](CCN2C(=O)CC2CC2)[C@@H]1CO,u,x
O=C(NCC[C@@H]1CC[C@@H](NC(=O)c2ccc3c(c2)OCO3)[C@H](CO)O1)Nc1ccc(Cl)cc1,-7.7,3.5
C[C@@H]1CN([C@H](C)CO)C(=O)c2cc(C3=CCCC3)cnc2O[C@@H]1CN(C)C(=O)C1CCOCC1,10.2,6.3
C[C@H]1CCCCO[C@H](CN(C)Cc2ccncc2)[C@@H](C)CN([C@@H](C)CO)C(=O)c2cc(NS(=O)(=O)c3ccc(Cl)cc3)ccc2O1,-20.0,-16.2
C[C@@H]1CN([C@@H](C)CO)C(=O)Cc2cc(NC(=O)Nc3ccc4c(c3)OCO4)ccc2O[C@H]1CN(C)C(=O)Nc1ccc(C(F)(F)F)cc1,22.2,19.5
O=C(CCN1CCCCC1)NCC[C@@H]1CC[C@H](NC(=O)C2CCOCC2)[C@H](CO)O1,8.9,10.5
Cc1noc(C)c1S(=O)(=O)Nc1ccc2c(c1)C(=O)N([C@H](C)CO)C[C@@H](C)[C@H](CN(C)Cc1ccc(Oc3ccccc3)cc1)O2,2.3,1.9
C[C@H](O)C#Cc1cnc2c(c1)C(=O)N([C@@H](C)CO)C[C@H](C)[C@@H](CN(C)C(=O)Nc1ccc(C(F)(F)F)cc1)O2,-23.7,-18.3
Cc1noc(C)c1S(=O)(=O)Nc1ccc2c(c1)CC(=O)N([C@@H](C)CO)C[C@H](C)[C@@H](CN(C)S(=O)(=O)c1c(C)noc1C)O2,15.4,16.1
CO[C@@H]1CN(C)C(=O)c2cc(NC(=O)c3cc(C)on3)ccc2OC[C@@H](C)N(S(=O)(=O)c2ccccc2)C[C@H]1C,-6.0,-7.9
Cc1noc(C)c1NC(=O)N(C)C[C@@H]1Oc2ccc(NS(=O)(=O)c3ccccc3)cc2C(=O)N([C@H](C)CO)C[C@@H]1C,3.0,3.3
CN(C)C(=O)C[C@H]1C=C[C@H](NC(=O)NC2CCCC2)[C@H](CO)O1,11.0,8.2
COCC(=O)Nc1ccc2c(c1)C(=O)N(C)C[C@H](OC)[C@@H](C)CN(C(=O)c1cnccn1)[C@H](C)CO2,-3.3,-6.0
O=C(C[C@@H]1C[C@@H]2c3cc(NC(=O)C4CCOCC4)ccc3O[C@@H]2[C@@H](CO)O1)NCc1cccc(F)c1,11.7,5.8
C[C@H]1CN([C@@H](C)CO)C(=O)c2cc(C#Cc3cccc(F)c3)cnc2O[C@H]1CN(C)Cc1ccccn1,19.7,0.1
CN(C)c1ccc2c(c1)[C@H]1C[C@H](CC(=O)NCc3cc(F)ccc3F)O[C@@H](CO)[C@H]1O2,-17.9,-5.0
C[C@@H]1CN([C@@H](C)CO)C(=O)CCCn2nncc2CO[C@@H]1CN(C)C(=O)CCCN(C)C,4.5,-2.7
C[C@H](CO)N1C[C@H](C)[C@H](CN(C)C(=O)c2ccccc2)OCCCC[C@H](C)Oc2ccc(NS(=O)(=O)c3ccccc3)cc2C1=O,-2.9,-3.6
Cc1ccc(S(=O)(=O)N(C)C[C@@H]2OCCCC[C@@H](C)Oc3ccc(NC(=O)NC4CCCCC4)cc3C(=O)N([C@H](C)CO)C[C@H]2C)cc1,u,x
O=C(CN1CCOCC1)N1CCCCN2[C@@H](CO)[C@@H](c3ccc(-c4ccccc4F)cc3)[C@@H]2C1,13.3,0.9
CCN1[C@@H]2Cn3c(ccc(/C=C/c4ccccc4)c3=O)[C@H]1[C@@H](C(=O)N1CCOCC1)[C@@H]2CO,-11.3,-0.7
O=C(C[C@H]1CC[C@@H]2[C@H](COC[C@@H](O)CN2C(=O)Nc2ccc(Cl)c(Cl)c2)O1)NCc1ccc(Cl)cc1,u,x
CCNC(=O)C[C@H]1C=C[C@H](NC(=O)NC2CCCCC2)[C@@H](CO)O1,-1.5,7.0
C[C@H]1CN([C@@H](C)CO)C(=O)c2cc(Br)cnc2O[C@H]1CN(C)Cc1ccccn1,11.5,8.2
CO[C@H]1CN(C)C(=O)c2cc(C#N)ccc2OC[C@H]2O[C@H](CC[C@H]2OC)CCN(C)C(=O)[C@@H]1C,16.6,13.7
CCC(=O)N(C)C[C@@H]1Oc2cc(-c3cccc(C#N)c3)ccc2S(=O)(=O)N([C@@H](C)CO)C[C@H]1C,10.9,8.0
C[C@H](CO)N1C[C@H](C)[C@@H](CN(C)S(=O)(=O)c2cccs2)OCCCC[C@H](C)Oc2ccc(NS(=O)(=O)c3ccccc3)cc2C1=O,u,x
CN(C)C(=O)c1ccc(-c2ccccc2[C@@H]2[C@H](C#N)N(C(=O)C3CCCCC3)[C@H]2CO)cc1,7.0,4.5
Cc1ccc(S(=O)(=O)N[C@@H]2CC[C@H](CCn3cc(-c4cccc(F)c4)nn3)O[C@@H]2CO)cc1,u,x
CS(=O)(=O)N1[C@H](C#N)[C@@H](c2ccc(C#CC3CC3)cc2)[C@H]1CO,5.3,8.5
CN(C)c1ccc2c(c1)[C@H]1C[C@H](CC(=O)NCc3ccc(-c4ccccc4)cc3)O[C@H](CO)[C@H]1O2,-25.7,-17.8
CCS(=O)(=O)N1CC(=O)N2[C@H](CO)[C@H](c3ccc(-c4ccccc4)cc3)[C@@H]2C1,8.5,13.5
Cc1cc(C(=O)Nc2cccc3c2O[C@H](CN(C)CC2CCCCC2)[C@H](C)CN([C@H](C)CO)C3=O)n(C)n1,-0.3,3.3

# Copied from the listing for reference:
SMILES,Vaccinia inh,Vaccinia inh Venus
C[C@H](CO)N1C[C@H](C)[C@@H](CN(C)S(=O)(=O)c2cccs2)OCCCC[C@H](C)Oc2ccc(NS(=O)(=O)c3ccccc3)cc2C1=O,u,x
CN(C)C(=O)c1ccc(-c2ccccc2[C@@H]2[C@H](C#N)N(C(=O)C3CCCCC3)[C@H]2CO)cc1,7.0,4.5
Cc1ccc(S(=O)(=O)N[C@@H]2CC[C@H](CCn3cc(-c4cccc(F)c4)nn3)O[C@@H]2CO)cc1,u,x

# (continued)
SMILES,Vaccinia inh,Vaccinia inh Venus
C[C@H]1CN([C@@H](C)CO)C(=O)Cc2cc(NC(=O)Nc3ccc4c(c3)OCO4)ccc2O[C@@H]1CN(C)Cc1ccc2c(c1)OCO2,1.3,6.8
C[C@@H]1CN([C@@H](C)CO)C(=O)c2cc(C#Cc3ccccc3)cnc2O[C@@H]1CN(C)C(=O)c1ccccn1,-8.3,-1.4
C[C@@H]1CN([C@H](C)CO)C(=O)Cc2cc(NC(=O)c3ccncc3)ccc2O[C@@H]1CN(C)C(=O)Nc1ccc(F)cc1,8.5,5.6
COCC(=O)Nc1ccc2c(c1)C(=O)N(C)C[C@H](OC)[C@@H](C)CN(Cc1cc(F)ccc1F)[C@@H](C)CO2,-10.7,8.8
C[C@H](O)C#Cc1ccc2c(c1)O[C@H](CN(C)Cc1ccccc1)[C@@H](C)CN([C@H](C)CO)S2(=O)=O,-22.1,-18.2
C[C@@H]1CN([C@H](C)CO)C(=O)c2cc(NC(=O)Nc3ccccc3)ccc2O[C@H]1CN(C)Cc1ccccc1,-20.1,-9.6
CO[C@H]1CN(C)C(=O)c2cc(NS(=O)(=O)c3ccccc3)ccc2OC[C@H](C)NC[C@H]1C,22.0,9.3
CN1C(=O)c2cc(NC(=O)c3cnccn3)ccc2OC[C@@H]2O[C@@H](CC(=O)NCC3CCCCC3)CC[C@H]21,-3.8,-11.0
O=C(Nc1ccccc1F)N1C[C@@H]2[C@H](c3ccccc31)[C@H](CO)N2C(=O)C1CCCC1,-4.8,1.5
CCNC(=O)Nc1ccc2c(c1)C(=O)N(C)[C@@H]1CC[C@H](CC(=O)N[C@@H](C)c3ccccc3)O[C@H]1CO2,1.9,0.8
Cc1noc(C)c1S(=O)(=O)Nc1ccc2c(c1)CC(=O)N([C@H](C)CO)C[C@H](C)[C@H](CN(C)Cc1ccc3c(c1)OCO3)O2,6.4,3.6
Cn1cnc(S(=O)(=O)N2C[C@@H](O)COC[C@@H]3O[C@@H](CC(=O)NCc4ccc(F)cc4)CC[C@H]32)c1,14.8,6.5
C[C@H]1CN([C@@H](C)CO)C(=O)c2cc(-c3cccc(F)c3)cnc2O[C@H]1CN(C)C,20.2,4.8
C[C@@H]1CCCCO[C@@H](CN(C)C(=O)NC2CCCCC2)[C@@H](C)CN([C@@H](C)CO)C(=O)c2cc(NC(=O)c3ccccc3)ccc2O1,-24.4,-20.4
COc1ccc(NC(=O)N[C@@H]2CC[C@H](CCNS(=O)(=O)c3ccccc3F)O[C@@H]2CO)cc1,1.4,-5.2
CN(C)C(=O)[C@H]1[C@H](CO)[C@H]2Cn3c(ccc(-c4ccncc4)c3=O)[C@H]2N1Cc1ccccc1F,9.3,6.5
Cc1ccc(S(=O)(=O)N2C[C@@H](O)COC[C@H]3O[C@@H](CC(=O)NCc4ccc(Cl)c(Cl)c4)CC[C@@H]32)cc1,u,x
C[C@H](CO)N1C[C@H](C)[C@@H](CN(C)C)Oc2ccc(NC(=O)Nc3ccc(C(F)(F)F)cc3)cc2C1=O,0.0,-1.5
CCCNC(=O)C[C@H]1CC[C@@H]2[C@H](COc3ccc(NC(=O)c4cccc(Cl)c4)cc3C(=O)N2C)O1,-5.5,-6.7
C[C@H](CO)N1C[C@H](C)[C@@H](CN(C)C(=O)c2ccncc2)OCCCC[C@H](C)Oc2ccc(NC(=O)c3ccccc3)cc2C1=O,13.5,1.3
C[C@@H]1CN([C@H](C)CO)C(=O)c2cccc(NS(=O)(=O)c3cccs3)c2O[C@H]1CN(C)Cc1ccncc1,4.1,0.9
C[C@@H]1CN([C@H](C)CO)C(=O)Cc2cc(NC(=O)C3CC3)ccc2O[C@@H]1CN(C)C,19.0,0.7
C[C@H]1CN([C@@H](C)CO)S(=O)(=O)c2ccc(Br)cc2O[C@H]1CN(C)S(=O)(=O)c1ccc(F)cc1,-24.2,-25.3
CCCC(=O)Nc1ccc2c(c1)OC[C@H](C)N(Cc1ccccn1)C[C@H](C)[C@@H](OC)CN(C)C2=O,13.0,5.5
O=C(NC[C@@H]1[C@@H](c2ccccc2)[C@H](CO)N1Cc1ccccn1)C1CCCC1,17.3,21.4
Cc1noc(C)c1NC(=O)Nc1cccc2c1O[C@H](CN(C)C(=O)NC1CCCCC1)[C@@H](C)CN([C@@H](C)CO)C2=O,10.1,10.6
CCCNC(=O)N1C[C@H](C)[C@@H](OC)CN(C)C(=O)c2cc(NS(C)(=O)=O)ccc2OC[C@@H]1C,12.2,5.4

# Screening data (PubChem BioAssay)

# An excerpt; the hit share may differ from the screen's.
